High-throughput results (PubChem)
Marburg entry inh = qHTS for inhibitors of binding or entry into cells for Marburg Virus. AID 540276, 2011. hit rate 1.8% among 300,000. Marburg virus pseudotyped entry inhibition, cell reporter; control for the full effect not named in the record; about a third of the inactives were read at about 46 µM. Potency, µM (titrated, usually from 37.8 µM), for the others: at the highest dose activity change, negative = inhibition, usual class: inhibitors; active = well fitted inhibition curve with a large enough effect; inconclusive = small, poorly fitted or top-dose-only effect, or effect the other way; inactive = flat fitted curve, though single readings scatter; tested in HEK293 cells; about a fifth of its hits are not listed in these tables; note: % is set by controls: 0 for no effect and ±100 for the full control effect; luciferase read-out
RE007 growth inh = qHTS Assay for Inhibitors of the HIV-1 protein Vpr; S. pombe RE007 Vpr strain, BacTiter-Glo ATP luminescence, 24 h; control for the full effect not named in the record; Potency, µM (doses to about 92.2 µM), for inactives: at the top dose activity change, negative = less growth; hit rate 0.21% among 360,000; AID 651644, 2012; active = well fitted falling curve with a large enough effect; inconclusive = small, poorly fitted or top-dose-only effect; inactive = no such curve, though single readings can be large or run the other way;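 note: % is set by controls: 0 for no effect and ±100 for the full control effect; nearly all actives have a fitted effect of over 50% in size; the assay follows cell death caused by Vpr and the record does not say whether a fall means rescue or toxicity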
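Fission yeast RE007 carrying one integrated HIV-1 vpr copy, seeded at OD 0.01 in PMG+AL medium with 23 nL pinned compound. Grown 24 h at 30 degrees; viability read by BacTiter-Glo luminescence after 5 min.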
Cruzain inh noDet = qHTS Assay for Promiscuous and Specific Inhibitors of Cruzain (without detergent); Cruzipain (Trypanosoma cruzi), P25779; purified cruzain, Z-FR-AMC fluorescence, no detergent; Potency, µM, inactives show max response, negative = inhibition, actives largely listed as inhibitors; hit rate 2.3% among 200,000; active = well fitted curve in the direction sought with a large enough effect; inconclusive = small, poorly fitted or top-dose-only effect, or another doubt; inactive = no such curve, though single readings can be large; an effect the other way counts as inactive or inconclusive;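 note: plate controls were enzyme without inhibitor for no effect and buffer without enzyme for full effect; nearly all actives have a fitted effect of over 40% in size; top concentration of the series not given in the record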
Target sequence (P25779 123-467 limits assumed): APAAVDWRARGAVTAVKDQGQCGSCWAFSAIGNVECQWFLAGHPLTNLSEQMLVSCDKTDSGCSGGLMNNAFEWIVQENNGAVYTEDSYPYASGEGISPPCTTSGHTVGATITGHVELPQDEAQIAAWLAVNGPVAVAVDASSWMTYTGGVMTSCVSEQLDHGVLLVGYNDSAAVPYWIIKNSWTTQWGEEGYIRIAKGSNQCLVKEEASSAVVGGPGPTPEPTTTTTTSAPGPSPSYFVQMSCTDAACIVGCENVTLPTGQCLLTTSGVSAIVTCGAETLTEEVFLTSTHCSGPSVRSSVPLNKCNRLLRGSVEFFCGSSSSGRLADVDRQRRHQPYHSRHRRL
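Detergent-free condition (0.00005% Triton X-100) in acetate buffer pH 5.5 with DTT. 1.5 nM enzyme and compound were pre-mixed 15 min, then 2 uM Z-FR-AMC substrate added; reaction progress from fluorescence change between first and third reads (60 s).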
Cruzain Triton = qHTS Assay for Promiscuous and Specific Inhibitors of Cruzain (with detergent); Potency, µM, for the others: max response, negative = inhibition, actives largely listed as inhibitors; purified cruzain, Z-FR-AMC fluorescence, 0.01% Triton; AID 1478, 2009; hit rate 0.43% among 200,000; Cruzipain (Trypanosoma cruzi), P25779; active = well fitted curve in the direction sought with a large enough effect; inconclusive = small, poorly fitted or top-dose-only effect, or another doubt; inactive = no such curve, though single readings can be large; an effect the other way counts as inactive or inconclusive;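 note: plate controls were neutral wells for no effect and buffer without enzyme for full effect; nearly all actives have a fitted effect of over 40% in size; top concentration of the series not given in the record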
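15 min RT preincubation of 1.5 nM cruzain with compound, then 2 uM Z-FR-AMC added; kinetic AMC fluorescence, 60 s delta. Triton X-100 0.01%, pH 5.5.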
2A StopGo = High Throughput Screening for Foot and Mouth Disease Virus Antivirals; human cells with a luciferase reporter of 2A StopGo recoding; control for the full effect not named in the record; Potency, µM (titrated, usually from 57.9 µM), inactives show at the highest dose signal change, negative = less light; hit rate 1.2% among 410,000; AID 1159524, 2015; active = well fitted falling curve with a large enough effect; inconclusive = small, poorly fitted or top-dose-only effect; inactive = no such curve, though single readings can be large or run the other way; tested in HEK293T cells; note: % is set by controls: 0 for no effect and ±100 for the full control effect; nearly all actives have a fitted effect of over 45% in size; luciferase light after 4 h
NS1 inh = qHTS Assay for Inhibitors of Influenza NS1 Protein Function; S. cerevisiae slowed by influenza A NS1, growth recovery by OD600; Potency, µM (titrated, usually from 46.1 µM), for inactives: at the top dose activity, positive = more growth; hit rate 0.4% among 270,000; note: actives are rising curves; nearly all actives have a fitted effect of over 50% in size
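OD600 was taken as the measure of yeast growth restored by compound in an NS1-expressing S. cerevisiae strain. Cells had been washed out of glucose medium and diluted 1:100 into galactose -URA medium, pH 6.0.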
SARS PLP yeast = qHTS of Yeast-based Assay for SARS-CoV PLP; hit rate 0.19% among 330,000; Potency, µM (doses to about 32.9 µM), inactives show at the top dose activity, positive = growth rescue; AID 485353, 2010; S. cerevisiae expressing SARS-CoV PLpro, growth rescue; control for the full effect not named in the record; note: 0% is about no effect; nearly all actives have a fitted effect of over 55% in size; growth read by luminescence after 48 h
LASV entry inh = qHTS for Inhibitors of binding or entry into cells for Lassa Virus | Lassa virus pseudotype entry inhibition, cell reporter; control for the full effect not named in the record | Potency, µM (doses to about 37.9 µM), without a hit: at the top dose activity change, negative = inhibition, hits mostly inhibitors | hit rate 1.2% among 300,000 | AID 540256, 2011; active means well fitted inhibition curve with a large enough effect; inconclusive means small, poorly fitted or top-dose-only effect, or effect the other way; inactive means flat fitted curve, though single readings scatter; tested in HEK293 cells; note: % is set by controls: 0 for no effect and ±100 for the full control effect; nearly all actives have a fitted effect of over 50% in size; luciferase read-out
* hit, by the source's call; ? = inconclusive; . = not tested or not shown; & = joins results of further samples; [ ] = another dose, or the depositor's remark. Unless noted, calls come from the whole dose curve; as a rule, active means well fitted rising curve with a large enough effect; inconclusive means small, poorly fitted or top-dose-only effect; inactive means no such curve, though single readings can be large or run the other way. Potency is the fitted concentration of half-maximal effect.

SMILES	Marburg entry inh	RE007 growth inh	Cruzain inh noDet	Cruzain Triton	2A StopGo	NS1 inh	SARS PLP yeast	LASV entry inh
Cc1cccc(NC(=O)CSc2nc3ccccc3nc2N2CCCC2)c1	.	2.0%	.	.	2.3%	19.6%	-1.0%	.
O=C(CCNC(=O)c1ccco1)Nc1ccccc1OC(F)F	-2.4%[46.1 µM]	-6.8%	.	.	2.5%	13.3%	2.7%	4.7%[46.1 µM]
CCOc1ccc(-c2nc(Cn3c(=O)cc(C)c4c(C)nn(-c5ccc(C)cc5)c43)c(C)o2)cc1	.	.	-3.2%	-0.9%	36.0%[activator]	.	.	14.3%[46.1 µM]
COc1ccccc1N1CCN(C(=O)C(=O)c2c(C)[nH]c3ccccc23)CC1	.	12.8%	.	.	-20.2%	-14.9%	7.6%	.
CC1=C(C(=O)Nc2cccc(C(F)(F)F)c2)C2(CCCCC2)OC1=O	?	.	-1.7%	-6.6%	-9.4%	.	.	-9.5%[46.1 µM]
COc1ccc2c(c1)c1c(c(=O)n(-c3ccccc3C)c(=O)n1C)n2C	.	.	5.5%	-1.6%	-12.5%	.	.	5.5%[46.1 µM]
Cc1ccc(NS(=O)(=O)c2cc(NC(=O)c3ccc4c(c3)NC(=O)CS4)ccc2C)c(C)c1	10µM*	2.9%	.	.	?	-0.9%	-0.7%	?
CC(C)C(C(=O)O)N1C(=O)/C(=C/c2cccn2C)SC1=S (stereo not given)	11.5%	-7.7%	-17.4%	-21.0%	2.2%	15.3%	26.6%	23.3%
Cc1cc(Cl)c2oc(C(=O)N(C)CC3CCOCC3)c(C)c2c1	.	-4.4%	.	.	6.9%	-20.9%	-18.1%	.
Cn1c(N)c(C(=O)COC(=O)Cc2ccccc2)c(=O)n(C)c1=O	18.0%[46.1 µM]	0.6%	.	.	7.9%	.	0.0%	?
CCCn1c(C(O)c2ccc(C)cc2)nc2ccccc21 (stereo not given)	.	7.7%	.	.	-21.8%	-16.5%	-2.9%	.
CCCCNC(=O)c1onc(CSc2ccccc2C)c1C(=O)O	.	6.5%	6.4%	2.4%	-21.0%	?	-3.8%	.
CCc1ccc(OCC(=O)NCc2ccco2)c(Br)c1	-22.5%	-20.5%	0.8%	-7.2%	.	-48.5%	-9.4%	17.4%
O=C(NC1CCCCCC1)c1ccc(Cl)c(S(=O)(=O)N2CCOCC2)c1	1.5%[46.1 µM]	3.9%	.	.	5.3%	0.0%	0.7%	1.1%
COc1ccc(C(=O)Nc2ccccc2C(=O)NCCCn2ccnc2)cc1	-13.5%&-13.5%	17.8%	0.9%	-0.1%	-8.8%	-13.8%	3.8%	0.9%
COc1cc(NC(=O)C2CCN(C(=O)c3sc4nc[nH]c(=O)c4c3C)CC2)cc(OC)c1OC	.	.	-5.3%	-0.6%	-8.0%	.	.	18.7%[46.1 µM]
Cc1ccc(S(=O)(=O)NC(=O)c2ccc(Br)o2)cc1	-17.7%	1.0%	-9.2%&2.0%	4.8%&-0.3%	-2.1%	16.7%	4.9%	-20.5%
CCOC(=O)C1C(=O)NC(C(=O)OCC)(C(=O)OCC)C1CC (stereo not given)	8.0%[46.1 µM]	-6.3%	.	.	-11.8%	.	.	3.4%[46.1 µM]
Cc1cc(NC(=O)CSc2nnc3c(C)cc4c(C)ccc(C)c4n23)no1	?	1.1%	6.6%	1.2%	1.4%	-3.1%	1.0%	?
COc1ccc(NC(=O)c2ccc(Cl)c(S(=O)(=O)N3CCc4ccccc4C3)c2)cn1	?	-1.2%	?	1.9%	20µM*	?	-9.8%	?
COc1ccc2nc(C)cc(SCC(=O)N/N=C/c3cccc4ccccc34)c2c1	?	-20.3%	-23.6%	?	-19.6%	19.7%	0.6%	13µM*
COc1ccccc1NC(=O)c1c(C)oc2c1CCCC2	0.2%	-12.3%	-17.2%	-6.4%	-3.8%	-6.0%	14.1%	-10.2%
COC(=O)Cc1cc(=O)[nH]c(Nc2nc3ccccc3o2)n1	19.2%	-2.4%	10.9%	2.3%	33.9%[activator]	22.8%	2.7%	15.4%
Cc1sc2nc(CSC(C)C(=O)N(C)CC(=O)Nc3ccccc3C(F)(F)F)[nH]c(=O)c2c1C (stereo not given)	?	4.2%	.	.	0.0%	.	-3.1%	?
Cc1cc(Nc2ccc(Br)cc2)nc(C)n1	18.1%[46.1 µM]	.	-17.0%	-4.8%	51.4%[activator]	.	.	18.5%[46.1 µM]

New compounds follow.
SMILES	Marburg entry inh	RE007 growth inh	Cruzain inh noDet	Cruzain Triton	2A StopGo	NS1 inh	SARS PLP yeast	LASV entry inh
CS(=O)(=O)N(CC(=O)Nc1ccc(S(=O)(=O)N2CCOCC2)cc1)c1cccc(F)c1	.	3.1%	.	.	-9.7%	-2.0%	0.3%	.
O=C(CCn1cnc2ccccc21)N=Nc1c(O)[nH]c2ccccc12	.	-2.9%	.	.	-16.4%	2.8%	-1.5%	.
Cc1cccc(N2CCCn3c2nc2c3c(=O)[nH]c(=O)n2C)c1	.	1.0%	.	.	0.0%	-0.7%	-0.3%	.
CCCCCOc1ccc(NC(=O)Cn2c(-c3nonc3N)nc3ccccc32)cc1	.	.	-5.6%	2.7%	-2.0%	.	.	-11.2%[46.1 µM]
Cc1ccc(NC(=O)c2cccn2-c2nnc(N3CCCCC3)s2)cc1Cl	.	.	-5.3%	-6.9%	11.1%	.	.	-19.7%[46.1 µM]
O=C1CC(c2ccccc2)C(c2ccccc2)=NN1 (stereo not given)	0.6%[46.1 µM]	2.7%	.	.	-17.8%	.	.	1.5%[46.1 µM]
COc1ccccc1NC(=O)NC(N)=O	15.0%	-8.0%	-0.9%	7.2%	-16.4%	-8.1%	8.5%	2.2%
COc1ccc(OC)c(NC(=O)CSc2cn(CC(=O)N3CCCCCC3)c3ccccc23)c1	.	.	-7.3%	-6.5%	?	.	.	?
CN(C1CCCCC1)S(=O)(=O)c1ccc2c(c1)c(=O)c(C(=O)N1CCc3ccccc3C1)cn2C	11.5%	6.9%	18.8%	7.9%	.	4.1%	0.4%	-20.2%
C=CCn1c(=N)n(CC(=O)c2ccc(OC)cc2)c2ccccc21	?	-9.9%	.	.	-24.5%	4.5%	-2.6%	?
CSCC(=O)N1CCCC(N2CCN(c3cccc(C(F)(F)F)c3)CC2)C1 (stereo not given)	.	25.7%	.	.	-14.7%	11.1%	-1.9%	.
Cc1scc(C(=O)O)c1-c1c(C(=O)O)csc1C	-1.0%	-0.9%	-10.8%	-1.8%	-5.4%	12.7%	2.7%	-0.5%
CCN(CC)C(=O)Oc1ccc2ccccc2c1Br	?	4.4%	.	.	18.3%	.	-1.4%	?
CC(=O)c1ccc(NC(=O)CSc2nnc(-c3ccncc3)n2-c2ccccc2)cc1	.	.	-9.4%	0.0%	-6.9%	.	.	-5.8%[46.1 µM]
Cc1cccc(N2CCN(C(=O)c3cccn3-c3nnc(N4CCCCC4)s3)CC2)c1C	.	.	-12.8%	-4.5%	?	.	.	?
Cc1c(OCC(=O)NCCN2CCOCC2)ccc2c(-c3ccccc3)cc(=O)oc12	-3.8%[46.1 µM]	6.8%	.	.	-19.0%	-14.8%	-1.3%	?
Cn1c(SCc2ccccc2)nnc1-c1cnccn1	?	3.1%	2.3%	2.6%	60.0%[activator]	-15.7%	6.0%	-1.5%
CCC(C)(C)c1ccc(OCC(=O)N(C)C)c(C(C)(C)CC)c1	?	1.6%	.	.	31.6µM*	-49.1%	-0.9%	?
N#Cc1c(N)oc(-c2ccc3c(c2)OCO3)c1-c1ccc2c(c1)OCO2	8.7%&0.0%	17.3%	-29.9%	-7.3%	-10.2%	1.6%	7.7%	11.7%
CC(C)(C)NC(=O)Cn1c(SCC(=O)Nc2nccs2)nc2ccccc21	?	-9.7%	-13.9%	1.2%	-21.5%	3.7%	5.8%	5.4%
CCOC(=O)c1oc2nc(C(C)C)c3c(c2c1N)CC(C)(C)OC3	-0.2%	8.1%	?	-17.1%	-23.3%	14.9%	-5.9%	-2.4%
CSc1nc2cc(F)c(F)cc2n1C	20.4%	-5.7%	0.1%	3.4%	-12.6%	1.2%	3.2%	-21.3%
Cc1noc2ncnc(N3CCN(c4cccc(C(F)(F)F)c4)CC3)c12	.	.	28.6%	-8.6%	?	.	.	0.5%[46.1 µM]
C=CCn1c(=O)c2ccccc2n2c(SCC(=O)Nc3sc(C)c(CC)c3C(=O)OCC)nnc12	?	1.4%	-2.7%	-6.7%	-24.6%	-1.9%	-2.5%	?
CCOC(=O)c1c(NC(=O)COC(=O)c2ccccn2)sc2c1CCC2	?	25.5%	?	-3.7%	-13.3%	-12.0%	-36.3%	2.6%

The listing continues:
SMILES	Marburg entry inh	RE007 growth inh	Cruzain inh noDet	Cruzain Triton	2A StopGo	NS1 inh	SARS PLP yeast	LASV entry inh
O=C(O)c1ccc(CSc2nc3cccnc3n2Cc2cccc(F)c2)cc1	-20.0%[46.1 µM]	.	-6.1%	-5.7%	-2.6%	.	.	.
CC(C)(C)NS(=O)(=O)c1ccc(NC(=O)C(Sc2ccccc2)c2ccccc2)cc1 (stereo not given)	?	12.4%[3.69 µM]	2.9%	0.3%	-23.7%	19.4%	4.9%	?
NC(=O)c1ccsc1NC(=O)COC(=O)c1nc(Cl)ccc1Cl	-8.4%[46.1 µM]	-4.6%	.	.	-15.1%	.	0.8%	1.8%
c1ccc(C2NCCn3cccc32)cc1 (stereo not given)	-21.5%[46.1 µM]	-8.8%	-2.4%	1.6%	-22.4%	9.7%	3.3%	-0.8%
CN(C)CCCNS(=O)(=O)c1ccc(N2CCN(Cc3ccc4c(c3)OCO4)CC2)c([N+](=O)[O-])c1	?	-7.1%	.	.	-19.5%	2.8%	-0.4%	.
CC(=O)OC1CSC2c3ccccc3C(=O)N2Cc2sccc21 (stereo not given)	.	1.4%	.	.	0.0%	-4.6%	-2.5%	.
